Marburg entry: Marburg virus entry inhibition | AID 720532 | actives 6.5% (n = 18,000) | Potency, µM (titrated, usually from 49.2 µM), for inactives: top-dose activity change, negative = inhibition, actives largely listed as inhibitors | Marburg virus pseudotype entry/binding inhibition, cell-based; control for the full effect not named in the record; many of its hits are not listed in these tables; active means well fitted inhibition curve with a large enough effect; inconclusive means small, poorly fitted or top-dose-only effect; inactive means no such curve, though single readings can be large or run the other way; tested in HEK293 cells; further: luciferase read-out
LASV entry inh: Lassa virus entry inhibition. Lassa virus pseudotyped entry inhibition, cell-based qHTS; control for the full effect not named in the record; many of its hits are not listed in these tables. Potency, µM (highest dose often 49.2 µM), for inactives: top-dose activity change, negative = inhibition, usual class: inhibitors. actives 4.1% (n = 18,000). AID 720533; active = well fitted inhibition curve with a large enough effect; inconclusive = small, poorly fitted or top-dose-only effect; inactive = no such curve, though single readings can be large or run the other way; tested in HEK293 cells; further: luciferase read-out
* hit, by the source's call; ? = inconclusive; nt = not tested or not shown; & = joins results of further samples; ! = not confirmed by another sample; [ ] = dose if it differs, or a comment. On the % scale 0 is the no-effect control and ±100 the full control effect; potency means the concentration at half of the fitted maximal effect.

SMILES	Marburg entry	LASV entry inh
COC(=O)CCCC1=CC2=C(c3ccccc3)C(=O)C(C)(OC(=O)C3CCCC3)C(=O)C2=CN1Cc1ccc(OC)cc1 (stereo unspecified)	-17.4%[8.59 µM]	12.3%[8.59 µM]
CNC1=CN=C(c2ccccc2)c2cc(Cl)ccc2N1	2.7%	-2.7%
O=c1[nH]c(=O)n([C@H]2C[C@H](O)[C@@H](CO)O2)cc1/C=C/Br	0.0%	-23.1%
CC1O[C@@H](OC2CC[C@@]3(C=O)C4CC[C@]5(C)C(C6=CC(=O)OC6)CC[C@@]5(O)C4CC[C@]3(O)C2)C(O)C(O)C1O (stereo partly specified)	0.199µM*	0.251µM*
Cc1cccc([C@H]2[C@@H]3C=CCC[C@@]3(C)C(=O)N2Cc2ccccc2)c1	-24.8%	6.6%
CCCCN1CC(N2CCCCC2)CS1(=O)=O (stereo unspecified)	20.8%	4.6%
COc1ccc(/C=C/c2cc(OC)cc(=O)o2)cc1	1.78µM*	8.91µM*
CCC(=O)OCC(=O)C1(OC(=O)CC)C(C)CC2C3CCC4=CC(=O)C=CC4(C)C3(Cl)C(O)CC21C (stereo unspecified)	-23.1%	-24.6%
C=CCOC(=O)N[C@@H](c1ccc(Br)cc1)C(C(C)=O)C(C)=O	15.1%	1.6%
COC(=O)C1(C(=O)OC)C[C@@H]2CON=C2[C@H]1c1ccccc1	-5.3%&1.6%	0.0%&-3.2%
CC(C)OC(=O)OCOP(=O)(CO[C@H](C)Cn1cnc2c(N)ncnc21)OCOC(=O)OC(C)C	-0.7%&-3.9%	-24.5%&-10.8%
CCCCCCCCCCCCCCC(C(=O)O)C(O)(CC(=O)OC)C(=O)O (stereo unspecified)	7.0%	-23.7%
COc1ccccc1N1CCN(C[C@@H](C(=O)NC(C)(C)C)c2ccccc2)CC1	-29.9%	-16.4%
CCN(CC)C(=O)/C(Cl)=C(\C)OP(=O)(OC)OC	1.2%	-7.8%
CCC1CN(CCNC(=O)c2cccc(C)n2)Cc2cc(OC)ccc2O1 (stereo unspecified)	-14.9%	-1.6%
O=C(/C=C/c1ccc(O)cc1)c1ccccc1O	?	-26.1%
O=C(CCCCCCCCC#CI)Oc1ccccc1	0.5%	?
CC(C)=CCCC1(C)C=Cc2c(O)c3c(c(CC=C(C)C)c2O1)OC12C(CC4CC1C(C)(C)OC2(C/C=C(/C)C(=O)O)C4O)C3=O (stereo unspecified)	2.6%	10µM*
C[C@@H]1CC2=CCCC2[C@]2(O1)C(=O)N(Cc1ccc(F)cc1)c1cccc(Br)c12 (stereo partly specified)	8.0%[8.59 µM]	4.8%[8.59 µM]
NC(C(=O)O)C(CC(=O)O)c1ccc(Cl)cc1 (stereo unspecified)	-3.7%	15.1%
CC1(OC(=O)C2CCCC2)C(=O)C=C2C=C(c3ccsc3)N(CCCCO)C=C2C1=O (stereo unspecified)	3.7%[8.59 µM]	20.5%[8.59 µM]
COC(=O)c1cc(CNC(=O)c2ccc3ncccc3c2)cc(NC(=O)c2ccccc2Cl)c1	-11.6%	-14.1%
CC(C)Cn1nnnc1S(=O)(=O)CC#N	1.2%	-4.4%
CN(C)CCN1C(=O)c2ccccc2N(C)c2ccccc21	35.5µM*!	?
NC(=S)NS(=O)(=O)c1ccc(N)cc1	-15.3%	-16.3%
CC[C@H](C)[C@H](NC(=O)[C@H](CO)NC(=O)[C@H](CC(C)C)NC(=O)[C@@H]1CCCN1C(=O)[C@@H]1CCCN1C(=O)[C@H](CC(=O)O)NC(=O)[C@@H](N)CC(=O)O)C(=O)N[C@@H](CC(=O)O)C(=O)N[C@@H](CC(C)C)C(=O)N[C@H](C(=O)N[C@@H](Cc1ccccc1)C(=O)N[C@@H](Cc1cnc[nH]1)C(=O)N[C@@H](CC(C)C)C(=O)N[C@@H](CC(C)C)C(=O)N[C@@H](CCCNC(=N)N)C(=O)N[C@H](C(=O)N[C@@H](CC(C)C)C(=O)N[C@@H](CC(C)C)C(=O)N[C@@H](CCC(=O)O)C(=O)N[C@@H](CC(C)C)C(=O)N[C@@H](C)C(=O)N[C@@H](CCCNC(=N)N)C(=O)N[C@H](C(=O)N[C@@H](CCC(N)=O)C(=O)N[C@@H](CO)C(=O)N[C@@H](CCC(N)=O)C(=O)N[C@@H](CCCNC(=N)N)C(=O)N[C@@H](CCC(=O)O)C(=O)N[C@@H](CCCNC(=N)N)C(=O)N[C@@H](C)C(=O)N[C@@H](CCC(=O)O)C(=O)N[C@@H](CCC(N)=O)C(=O)N[C@@H](CC(N)=O)C(=O)N[C@@H](CCCNC(=N)N)C(=O)N[C@H](C(=O)N[C@H](C(=O)N[C@@H](Cc1ccccc1)C(=O)N[C@@H](CC(=O)O)C(=O)N[C@@H](CO)C(=O)N[C@H](C(N)=O)C(C)C)[C@@H](C)CC)[C@@H](C)CC)[C@@H](C)O)[C@@H](C)O)[C@@H](C)O	6.5%	0.8%
CCCCCCN1C[C@H](n2cc(C3CC3)nn2)[C@@H](O)C[C@H]1c1ccc(Cl)cc1	?	?
COc1cccc([C@@H]2Oc3ccc(Br)cc3C[C@@H]2OC(=O)Nc2cc(OC)c(OC)c(OC)c2)c1	-5.4%[8.59 µM]	20.8%[8.59 µM]
COc1ccc2cc(CN(C(=O)c3cc(C)nn3C)C3CC3)c(-c3ccc(Cl)cc3)nc2c1	-20.3%	-22.3%
O=C(C[C@H]1C(=O)N(Cc2ccccc2)C[C@@H]1Cc1ccccc1)Nc1ccc(Br)cc1	?	nt
O=C(O)Cc1ccccc1Oc1ccc(Cl)cc1Cl	1.8%	-14.6%
COc1ccc(-c2cc(=O)c3c(O)cc(O)c(-c4cc(-c5cc(=O)c6c(O)cc(O)cc6o5)ccc4OC)c3o2)cc1	5.7%	-5.4%
CN(C)Cc1nc(-c2cn(C)c3ccccc23)no1	?	-10.6%
CC(C)C[C@@H](CC(=O)N[C@@H](CCCN)CC(=O)N[C@@H]1CCCC[C@H]1C(=O)N[C@H](CC(=O)N[C@@H](CCC(=O)O)CC(=O)O)Cc1c[nH]c2ccccc12)NC(=O)[C@@H]1CNCC[C@H]1N	0.5%	-1.2%
CSc1ccc(Oc2cccc3c2S(=O)(=O)N(C2CC2)C[C@@H](COCc2ccccc2)O3)cc1C	?	-9.5%
CCN1C(=NCc2cccc(C(F)(F)F)c2)NC(c2cccs2)C(C(=O)OC)=C1C (stereo unspecified)	?	-7.0%[8.59 µM]
C[C@@H](CO)NC(=O)[C@@H]1C=C2c3cccc4[nH]cc(c34)C[C@H]2N(C)C1	3.3%&-12.5%	-14.8%&-3.3%
Cc1cc(NC(=O)Nc2ccc3c(ccn3C)c2)sn1	35.8%[activator]	24.1%
COCC1CCCN(Cc2ccc3c(c2)CN(C(=O)c2cn4ccc(C)cc4n2)CCO3)C1 (stereo unspecified)	?	-5.1%
CCC1(C2CCN(C(=O)c3csc(C(C)=O)c3)CC2)NC(=O)N(CCc2scnc2C)C1=O (stereo unspecified)	-4.8%	-4.2%
COC(=O)C1CCN(Cc2ccc3c(c2)CN(C(=O)c2cc4cc(F)ccc4[nH]2)CCO3)CC1	?	-13.2%
CNc1ccccc1C(=O)N1CCc2c([nH]c3ccccc23)C1=O	-21.9%	57.5%[activator]
Nc1nc(-c2ccc3c(c2)C(=Cc2cc(Br)c(O)c(Br)c2)C(=O)N3)cs1	?	9.6%
COC1/C=C/OC2(C)Oc3c(C)c(O)c4c(O)c(c(/C=N/N5CCN(C)CC5)c(O)c4c3C2=O)NC(=O)/C(C)=C/C=C/C(C)C(O)C(C)C(O)C(C)C(OC(C)=O)C1C (stereo unspecified)	-1.6%	-3.2%
CC1=CC2C(CC1=O)C(C)=CCC2C(C)C (stereo unspecified)	1.4%	4.4%
CCCCC1=CC2=C(c3ccco3)C(=O)C(C)(OC(=O)c3ccc(OC)cc3)C(=O)C2=CN1CCCCO (stereo unspecified)	?	-1.1%[8.59 µM]
O=C(Nc1ccc(Br)cc1)c1cc(Br)cc(Br)c1O	25.5%	?
C=COC[C@H]1CN2[C@H](c3ccc(Br)cc3)[C@H](C)CC[C@H]2C(=O)O1	-0.9%[8.59 µM]	1.1%[8.59 µM]

Exported bar-delimited: 6 of the compounds above.
compound | Marburg entry | LASV entry inh
C[C@@H](CO)NC(=O)[C@@H]1C=C2c3cccc4[nH]cc(c34)C[C@H]2N(C)C1 | 3.3%&-12.5% | -14.8%&-3.3%
Cc1cc(NC(=O)Nc2ccc3c(ccn3C)c2)sn1 | 35.8%[activator] | 24.1%
COCC1CCCN(Cc2ccc3c(c2)CN(C(=O)c2cn4ccc(C)cc4n2)CCO3)C1 (stereo unspecified) | ? | -5.1%
CCC1(C2CCN(C(=O)c3csc(C(C)=O)c3)CC2)NC(=O)N(CCc2scnc2C)C1=O (stereo unspecified) | -4.8% | -4.2%
COC(=O)C1CCN(Cc2ccc3c(c2)CN(C(=O)c2cc4cc(F)ccc4[nH]2)CCO3)CC1 | ? | -13.2%
CNc1ccccc1C(=O)N1CCc2c([nH]c3ccccc23)C1=O | -21.9% | 57.5%[activator]

(next part)
SMILES	Marburg entry	LASV entry inh
CCN(CC)CCOc1ccc(C(O)(Cc2ccc(Cl)cc2)c2ccc(C)cc2)cc1 (stereo unspecified)	3.55µM*	25.1µM*
CC(=O)c1ccc(F)c(-c2cc(C)cc3c2OC(CNC(=O)C[C@@H]2C[C@@H](C)NC(=S)N2)C3)c1 (stereo partly specified)	?	-3.9%
CC(C)[C@@H]1NC(=O)[C@H](CCCCN)NC(=O)[C@@H](Cc2c[nH]c3ccccc23)NC(=O)[C@H](Cc2ccc(O)cc2)NC(=O)[C@@H](NC(=O)[C@H](N)Cc2ccccc2)CSSC[C@@H](C(=O)N[C@@H](Cc2c[nH]c3ccccc23)C(N)=O)NC1=O	13.9%	3.5%
CCC[C@H](NC(=O)[C@H](Cc1ccc(O[S+](=O)([O-])O)cc1)NC(=O)OC(C)(C)C)C(=O)NCC(=O)N[C@@H](Cc1c[nH]c2ccccc12)C(=O)N[C@@H](CCC)C(=O)N[C@@H](CC(=O)OCCc1ccccc1)C(=O)O	12.4%	-4.2%
O=C(O)c1ccncc1	0.4%	-0.1%
CCN1C(=NCc2cccc(C(F)(F)F)c2)NC(c2ccccc2)C(C(=O)OC)=C1C (stereo unspecified)	?	5.2%[8.59 µM]
CC[C@]12CCCN3CCC4(c5ccccc5NC4C(C(=O)O)C1)C32 (stereo partly specified)	?	-16.8%
CCn1c(-c2nonc2N)nc2c(C#CC(C)(C)O)nc(OCC(N)c3ccccc3)cc21 (stereo unspecified)	3.15µM*	nt
CC(C)C[C@H](NC(=O)[C@H](CO)NC(=O)[C@@H]1CCCN1C(=O)[C@H](Cc1ccc(O)cc1)NC(=O)[C@H](CC(C)C)NC(=O)[C@H](CC(C)C)NC(=O)[C@@H]1CCCN1C(=O)[C@@H](NC(=O)[C@H](CO)NC(=O)[C@H](CO)NC(=O)[C@H](CO)NC(=O)[C@H](CO)NC(=O)[C@@H]1CCCN1C(=O)[C@@H](NC(=O)[C@@H](N)CO)C(C)C)[C@@H](C)O)C(=O)N[C@@H](C)C(=O)N[C@@H](CC(C)C)C(=O)N1CCC[C@H]1C(=O)N[C@@H](C)C(=O)N1CCC[C@H]1C(=O)O	2.8%	-8.1%
CCCCCCCCCCCCC/C=C/[C@@H](O)[C@H](CO)NC(C)=O	7.0%	1.1%
COC(=O)[C@@]1(C=C[C@@H](C)[C@H](OC)c2ccccc2Br)[C@@H]2Oc3ccccc3[C@@H]21	4.0%[8.59 µM]	-6.2%[8.59 µM]
O[C@@H](Cc1ccncc1)C(Cl)(Cl)Cl	-2.8%	?
COCCN1C(=O)N[C@@H](c2cccc(C(F)(F)F)c2)C(C(C)=O)=C1C	1.4%	-0.6%
COc1ccc(O[C@H]2C=C[C@@H](c3ccccc3)O[C@H]2COC(=O)CCC(C)=NO[C@H](C)c2cn([C@@H]3COC[C@@H]3O)nn2)cc1	-3.3%[8.59 µM]	nt
C[C@H]1CN(c2ccc(Br)cc2)C(=O)[C@H]1CC(=O)Nc1ccccc1	24.0%	9.5%
Cc1cc2nc3ccc(=[N+](C)C)cc-3sc2cc1N	12.6µM*	22.4µM*
O=P(O)(O)OCC(O)CO (stereo unspecified)	4.4%	-4.6%
COc1cc(SC)ccc1C(=O)N1CCC(Cc2ccccc2)CC1	-17.4%	11.2µM*
Cc1ccc(O)c(C(CCN(C(C)C)C(C)C)c2ccccc2)c1 (stereo unspecified)	?	-23.9%
CC1C(=O)N(Cc2cn(CCC3OCCCO3)nn2)CCS(=O)(=O)N1Cc1ccc(-c2ccc(F)nc2)cc1 (stereo unspecified)	5.1%	-13.8%
N=C(CC(O)COc1ccccc1-c1ccccc1)N1CCCCC1 (stereo unspecified)	?	?
CC(=O)OC1C[C@]2(C)C(C(C)=O)CCC2C2CCC3=CC(=O)CC[C@@]3(C)C12 (stereo partly specified)	4.9%	0.7%
CCC1(CC)C(=O)NC(=O)N(C)C1=O	12.3%	12.7%
C[C@@H]1CCC2[C@](C)(CO)C(O)CC[C@@]2(C)[C@@]12CC[C@](CO)(CCO)O2 (stereo partly specified)	12.3%	-2.0%
C=CC[C@@H]1[C@H](O)CC[C@@]2(C)[C@H]1CC[C@@H]1[C@@H]2CC[C@]2(C)C([C@H](C)CCCC(C)C)CC[C@@H]12 (stereo partly specified)	17.4%	-7.4%
C[C@H](NC(=O)[C@@H](N)Cc1ccc(O)cc1)C(=O)N[C@@H](Cc1ccccc1)C(=O)N[C@@H](Cc1ccccc1)C(N)=O	-9.3%	5.4%

Rows are unselected. About 7.3% of those tested had a hit in this group.
